Screening data deposited in PubChem BioAssay by ICCB-Longwood Screening Facility, Harvard Medical School.
AID504770 – E. coli YBA685 growth inhibition, screen for V. cholerae RctB inhibitors; E. coli YBA685 rctB-dependent plasmid, OD600 growth, 3 h; hits give low values; z-score (test concentration not listed); 0.27% of 130,000 active; AID 504770;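 active = z-score under -2 on both plates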;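 note: wells of about 30 µL received 100 nL stock; score is relative to mean and SD of the test wells; the first replicate is given; strong numbers were not always called active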
CapD inh – CapD enzyme inhibition. AID 492967. purified CapD enzyme, fluorescence intensity read-out; hits give low values; some hits fall short of the stated cut. 0.23% of 140,000 active. z-score (test concentration not listed);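 active = z-score under -4 in either of two replicates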;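 note: stock transfer was 100 nL into about 40 µL; score is relative to mean and spread of the plate; one replicate is shown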
Active calls of the source: *; x = no result given.

SMILES	AID504770	CapD inh
CC1=C(C(=O)OCc2ccccc2)C(c2cc3c(cc2Br)OCO3)NC(=O)N1 (stereo unspecified)	x	0.025
CCn1c(O)c(C2=c3ccccc3=NC2=O)sc1=S	1.1	-1.26
O=C1Cc2ccccc2C(c2ccc(Cl)cc2Cl)N1 (stereo unspecified)	x	-0.18
O=C(COC(=O)c1ccc(-n2cnnn2)cc1)Nc1cc(-c2ccccc2)nn1-c1ccccc1	-0.25	x
O=C(Nc1ccccc1C(=O)Nc1ccc2c(c1)OCCO2)c1ccco1	-0.35	0.09
FC(F)(F)c1cccc(N2CCN(c3cnc4ccccc4n3)CC2)c1	x	0.87
NC(=O)C(c1ccccc1)c1ccccc1	-0.85	0.06
O=C(CNC(=O)c1ccccc1)Nc1ccccc1	-0.85	-0.455
CNn1cnc2ccccc2c1=O	x	0.525
Cc1c(C)n(CC(O)CNC(CO)(CO)CO)c2ccccc12 (stereo unspecified)	-0.65	0.55
CC(CC(=O)Nc1ccc(F)cc1)N1CCCC1 (stereo unspecified)	-0.9	0.015
Cc1cccc(NC(=O)CCS(=O)(=O)c2ccccc2)c1	-1.1	-0.68
O=C(COc1ccc(Cl)cc1Cl)NCC12C=CC(O1)C1C(=O)N(c3ccc([N+](=O)[O-])cc3)C(=O)C12 (stereo unspecified)	x	-0.4
O=C(CNc1cc(C(F)(F)F)cc(C(F)(F)F)c1)c1cc2cc(Cl)ccc2o1	1.3	0.51
Cc1c(N=Cc2ccccc2Cl)c(=O)n(-c2ccccc2)n1C	x	0.25
CCc1cc2c(=O)c(-c3nc4ccccc4s3)coc2cc1OC(C)=O	-0.5	0.805
O=C1CSC(=O)N1CCc1ccccc1	-0.6	x
O=C(O)c1ccc(Nc2nc(-c3ccc(Cl)c(Cl)c3)cs2)cc1	-0.45	11.6
CC(C)CSCC1OC(n2cnc3c(N)ncnc32)C(O)C1O (stereo unspecified)	-0.35	-0.215
COCCN(Cc1nc2ccccc2c(=O)[nH]1)C(=O)c1ccc(C)cc1C	1.25	x
CCOC(=S)SCc1cc(Br)cc(Br)c1	2.75	1.27
CN1/C(=C2\C=NN(C)P2(=O)Nc2ccccc2)C(C)(C)c2ccccc21 (stereo unspecified)	0.2	x
Cc1ccc(OCC(=O)NN)c2c1CCC2	x	0.175
CCC(N)C12CC3CC(CC(C3)C1)C2 (stereo unspecified)	0.95	0.71
CN(C)CC#Cc1ccc(-c2ccn(S(=O)(=O)c3ccc(Cl)cc3)n2)s1	0	-0.25

Single values from the entries so far.
For CapD inh, O=C(O)c1ccc(Nc2nc(-c3ccc(Cl)c(Cl)c3)cs2)cc1 shows 11.6
For CapD inh, CC1=C(C(=O)OCc2ccccc2)C(c2cc3c(cc2Br)OCO3)NC(=O)N1 (stereo unspecified) shows 0.025
For CapD inh, O=C1Cc2ccccc2C(c2ccc(Cl)cc2Cl)N1 (stereo unspecified) shows -0.18
For CapD inh, Cc1c(C)n(CC(O)CNC(CO)(CO)CO)c2ccccc12 (stereo unspecified) shows 0.55
For CapD inh, FC(F)(F)c1cccc(N2CCN(c3cnc4ccccc4n3)CC2)c1 shows 0.87
For CapD inh, CC(CC(=O)Nc1ccc(F)cc1)N1CCCC1 (stereo unspecified) shows 0.015

Returning to the listing, starting two compounds before the break.
SMILES	AID504770	CapD inh
CCC(N)C12CC3CC(CC(C3)C1)C2 (stereo unspecified)	0.95	0.71
CN(C)CC#Cc1ccc(-c2ccn(S(=O)(=O)c3ccc(Cl)cc3)n2)s1	0	-0.25
Brc1ccc2noc(-c3ccccc3)c2c1	-0.65	-0.25
COc1ccc(CC(=O)n2[nH]c(=O)cc(C)c2=O)cc1OC	-0.75	0.2
CCc1nnc(NC(=O)C(C)N2C(=O)C3C4C=CC(C4)C3C2=O)s1 (stereo unspecified)	1.45	-0.265
COc1ccc(C2NC(=S)NC(C)=C2C(=O)Nc2ccc(C)cc2C)c(OC)c1 (stereo unspecified)	x	-0.66
CCOC(=O)N1CCN(C(=O)c2ccc3c(=O)n(-c4ccc(F)c(Cl)c4)c(=S)[nH]c3c2)CC1	x	-0.435
CC1(C)Cc2cccc(C(=O)NCc3cccs3)c2O1	0.45	1.33
Cc1c(C(=O)c2ccncc2)nnn1-c1cc(C(F)(F)F)cc(C(F)(F)F)c1	x	-0.39
COc1ccc(CNC(=O)c2cc3c(s2)CN(Cc2ccccc2)C3)cc1	-0.1	4.06
O=C1c2ccccc2C(=O)N1N1C(=O)C2C3C=CC(C3)C2C1=O (stereo unspecified)	0.25	0.4
CC(=O)Nc1cccc(-c2nc3cc(C)ccc3o2)c1C	-0.35	0.465
CC1(C)N=C(c2ccccc2)C(=S)N1	-0.25	-0.015
CC(C)(C)c1ccc(-c2nnc(SCc3ccc([N+](=O)[O-])cc3)o2)cc1	x	0.66
COc1ccc(-n2c(C)nc(=O)c(-c3ccccc3)c2C)cc1	0.3	x
O=C1CCC(=O)N1c1ccc(OC(F)(F)F)cc1	-0.7	0.115
CCC(=O)Nc1ccc2nc(SCC(=O)Nc3ccccc3C(=O)OC)sc2c1	x	0.08
CCOC(=O)c1c(O)c(O)c(C(=O)OCC)n1-c1ccccc1	x	0.215
CCOc1cc(/C=C2\NC(=S)N(c3ccc(OC)cc3)C2=O)ccc1OCC(=O)O	x	-2.08
O=C(COC(=O)C1CCN(S(=O)(=O)c2cccs2)CC1)c1ccccc1	-0.1	-0.665
Cc1ccc2nc3n(c(=O)c2c1)CC(O)=C3C#N	0.35	x
OC(COc1ccc(Cl)cc1)CN1CCN(c2ccccc2)CC1 (stereo unspecified)	1.35	-0.59
Cc1cc(C)c(/C=C2\SC(=S)N(CC(=O)O)C2=O)c(C)c1	x	-0.58
N#Cc1c(NC(=O)CC(c2ccccc2)c2ccccc2)oc(-c2ccco2)c1-c1ccco1	0.05	x
COc1cc2c(C#N)c(N3CCN(S(=O)(=O)c4ccccc4C(F)(F)F)CC3)nc(N)c2c(N)n1	0.05	x
c1ccc(-c2cccc(-c3ccccc3)n2)cc1	-0.35	0.53
CC(C)CN(CC(C)C)c1nnc(NC(=O)c2cc(-c3ccc(Br)cc3)on2)s1	0.6	-0.54
SMILES	AID504770	CapD inh
COc1cccc(C(=O)NC(C)C2CC3CCC2C3)c1OC (stereo unspecified)	0.6	0.215
CCOC(=O)CSc1nc(-c2ccccc2)ns1	-0.05	x
COc1cc2c(cc1OC)C1=C(C#N)CN(CC(=O)O)CN1CC2	-3.55	-0.335
O=C(O)CCCC(=O)n1cnc2ccccc21	0.9	x
COc1ccc(N(Cc2cc3cccc4c3n(c2=O)CCC4)C(=O)c2c(F)cccc2F)cc1	x	-0.535
O=C1CN(C(=O)CCN2CCOCC2)C(c2ccccc2)c2cc(Br)ccc2N1 (stereo unspecified)	1.75	-0.275
O=C(CC1NC(=O)NC1=O)Nc1ccccc1 (stereo unspecified)	-0.15	x
Cc1cccc(CSc2ncc3c(n2)-c2cc(C)ccc2SC3)c1	x	-1.17
O=C(Cc1noc2ccccc12)Nc1ccc(Cl)cc1	-1.6	-1.86
Cc1ccc(OCC(O)CNC2Cc3ccccc3C2)cc1C (stereo unspecified)	-0.2	0.645
Cc1ccc(O)c(-c2cc(-c3ncc(Cl)n3C)[nH]n2)c1	0.25	5.82
O=C(c1ccc(Cl)cc1)N1CCC(c2nc(-c3ccc(Cl)cc3)no2)CC1	0.3	0.425
CNc1ccc(Br)cc1-c1n[nH]c(=S)[nH]c1=O	1.8	x
O=S(=O)(c1ccc(Cl)cc1Cl)N1CCN(C(c2ccc(Cl)cc2)c2ccc(Cl)cc2)CC1	x	0.205
CCN(CC)CCN1C(=O)C(=O)/C(=C(\O)c2ccc(Cl)cc2)C1c1ccc(F)cc1 (stereo unspecified)	x	-0.475
Nc1c(-c2ccc(Cl)cc2)cnn1-c1ncc(C(F)(F)F)cc1Cl	-0.05	0.435
CCN(CC)c1ccc(C2N(C(=O)N3CCOCC3)CCN2S(=O)(=O)c2ccc(C)cc2)cc1 (stereo unspecified)	-0.25	-0.05
CCCCNc1nc(-c2cccc(OC)c2)no1	-0.6	0.185
O=C1NN(c2ccccc2)C(=O)C2C3C=CC(C4CC34)C12 (stereo unspecified)	-0.7	x
CN1CCN(NC(=O)COc2ccc3c(c2)CCC3)CC1	0.75	0.375
COc1ccccc1NC(=O)c1cccc(S(=O)(=O)N2CCCC2)c1	-0.2	0.1
CC1(C)CC(=O)C2=C(C1)NC1=C(C(=O)CC(C)(C)C1)C2c1ccc2c(c1)OCO2	0.35	x
Cc1csc2nc(CN3CCCC3c3cccs3)cc(=O)n12 (stereo unspecified)	-0.5	x
CC(=O)Nc1ccc(O)c(-c2nc3ccccc3s2)c1	0.1	15.3
Cc1ccc(C(=O)CC(C(=O)c2ccc(C(F)(F)F)cc2)c2cccs2)cc1 (stereo unspecified)	0.05	0.235

No new results follow: an excerpt of the list.
SMILES	AID504770	CapD inh
COc1cccc(C(=O)NC(C)C2CC3CCC2C3)c1OC (stereo unspecified)	0.6	0.215
CCOC(=O)CSc1nc(-c2ccccc2)ns1	-0.05	x
COc1cc2c(cc1OC)C1=C(C#N)CN(CC(=O)O)CN1CC2	-3.55	-0.335
O=C(O)CCCC(=O)n1cnc2ccccc21	0.9	x
COc1ccc(N(Cc2cc3cccc4c3n(c2=O)CCC4)C(=O)c2c(F)cccc2F)cc1	x	-0.535
O=C1CN(C(=O)CCN2CCOCC2)C(c2ccccc2)c2cc(Br)ccc2N1 (stereo unspecified)	1.75	-0.275

(cont.)
SMILES	AID504770	CapD inh
COCCNC(=O)c1sc2ncnc(N3CCN(c4ccccn4)CC3)c2c1C	x	0.355
COc1ccc(OC/C(N)=N/OC(=O)c2cc(C)on2)cc1	-0.55	0.715
Cc1sc(-c2ccccc2)nc1CC(=O)NNC(=O)c1ccco1	x	3.58
COC(=O)c1sccc1-n1cccc1C(=O)C(=O)Nc1ccc(Cl)cc1	x	-1.11
Cc1cc(S(=O)(=O)N2CCCCC2)c(C)c(C)c1C	0.8	0.01
CCC(C)(C)NCC(=O)Nc1ccc(OC(F)(F)F)cc1	0.65	x
CC(C)(C)C(=O)Nc1ccc(-n2cc(-c3cnccn3)cn2)cc1	x	1.81
COc1ccc(NC(=O)COC(=O)Cn2cnc3ccccc3c2=O)c(OC)c1	-0.95	x
C#C[C@]1(O)CCC2C3CCC4=CC(=O)CC[C@]4(C)C3CC[C@@]21C (stereo partly specified)	x	0.275
CN(Cc1nc(-c2ccccc2)no1)C(=O)N1CCOCC1	0.15	x
CCOC(=O)c1ccc(N2N=C(C(F)(F)F)/C(=C/c3ccc(O)c(OCC)c3)C2=O)cc1	x	-0.43
O=C(NN1C(=O)C2C3C=CC(C3)C2C1=O)c1ccncc1 (stereo unspecified)	-0.2	-0.565
Cc1c(N(CC(=O)NN=C2CCCCC2)S(=O)(=O)c2ccccc2)c(=O)n(-c2ccccc2)n1C	x	-0.335
Cc1ccc(NC(=O)/C(=C/c2ccc([N+](=O)[O-])cc2)NC(=O)c2ccc(C(C)(C)C)cc2)cc1Cl	x	-0.06
CN1C(=O)C(O)(c2nnc(-c3ccccc3)o2)c2ccccc21 (stereo unspecified)	-0.55	x
CN1C(=O)N(C)C2NC(SCC(=O)O)=NC21 (stereo unspecified)	0.75	x
CC(C)CC(NC(=O)c1ccco1)C(=O)Nc1ccc2c(c1)OCCO2 (stereo unspecified)	-0.25	-0.795
O=C(Nc1ccc(OCc2ccccc2)cc1)OCC1CN(Cc2ccccc2)CCO1 (stereo unspecified)	-0.55	0.49
CCOC(=O)C1=C(N)n2c(s/c(=C\c3ccc(O)cc3)c2=O)=C(C#N)C1c1ccc(O)cc1 (stereo unspecified)	x	-0.17
COc1cccc(Nc2cc(N3CCOCC3)c3nonc3c2[N+](=O)[O-])c1	x	-0.155
N#Cc1c(N)nc2sc(C(=O)Nc3ccc(Br)cc3)c(N)c2c1-c1cccs1	x	-0.985
CSc1nc2ccc(NC(=O)CN3C(=O)c4ccccc4C3=O)cc2s1	x	0.095
CCN1CCN(C(=O)c2ccccc2C(=O)Nc2ccc(S(=O)(=O)N3C(C)CCCC3C)cc2)CC1 (stereo unspecified)	-1.05	0.055
Clc1ccc2nc(-c3cccs3)cn2c1	-0.15	52.8
Cc1c(C)c(C)c(C(=O)/C=N/N)c(C)c1C	-1.3	-0.375
SMILES	AID504770	CapD inh
CN1C(=O)C[C@@H](C(=O)O)[C@@H]1c1ccccc1Cl	0.2	x
COC(=O)c1sc2nc3n(c(=O)c2c1C)N=C(c1cccc(OC)c1)CS3	0.55	1.81
COc1ccc(-c2nc(-c3ccc(C)cc3)[nH]c2-c2ccc(OC)cc2)cc1	x	78.6
CN(Cc1ccccc1)C(=O)CN1C(=O)c2ccccc2C1=O	0.55	-0.055
COc1ccccc1C(=O)NCCc1c(C)[nH]c2ccc(OCc3ccccc3)cc12	x	0.55
Nc1ncc(Br)cc1S(=O)(=O)NCCC(=O)Nc1ccc(Cl)cc1	-0.35	-0.085
CCCN(CCC)CC(O)CN(c1ccccc1)S(=O)(=O)c1ccccc1 (stereo unspecified)	x	0.425
CCN1CCCC1CNC(=O)c1ccc2c(c1)[nH]c(=S)n1c3ccccc3nc21 (stereo unspecified)	x	-0.295
COc1ccc(CCNC(=O)CSc2nc3cc4c(cc3c(=O)n2Cc2ccco2)OCO4)cc1OC	-0.35	-0.51
CN(c1ccc(Br)cc1)S(=O)(=O)c1ccc2[nH]cc(C(=O)N3CCN(Cc4ccccc4)CC3)c(=O)c2c1	x	1.04
CCn1nnc2c(NCCc3ccc(S(N)(=O)=O)cc3)ncnc21	-0.4	x
COc1ccc(-c2nsc3c(N4CCN(S(=O)(=O)c5cccc(F)c5)CC4)ncnc23)cc1	1.85	x
Cc1ccc(-c2ccc(=O)n(CCC(=O)NCCN3CCN(c4cccc(Cl)c4)CC3)n2)cc1	-0.7	0.17
CCOC(=O)Cn1c2c(c(=N)c3c1CCC3)CCC2	-2	0.005
OCCCN1CNC(=S)NC1	x	0.02
COc1ccc(NC(=O)N2CCC(n3cnc4ccccc43)CC2)cc1	0.4	x
COc1cc(O)c(/C=N/NC(=O)c2ccc(C(F)(F)F)cc2)c(OC)c1	x	-0.44
CCC1CCC(N2CCN(c3ccccc3F)CC2)CC1 (stereo unspecified)	0.05	-0.165
